# Myc binder = c-Myc (human) binding; P01106; small molecule microarray, His-c-Myc binding, anti-His fluorescence; calls only; 17,000 compounds, 1.5% hits; AID 624141;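 active means spot fluorescence over background with P-value below 7% in all four replicate spots, showing protein binding; compounds were printed on slides so no solution concentration is given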;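 further: score is binary with 100 for all four spots passing and 0 otherwise; about 2 pmol printed per array spot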
# Target sequence (P01106 whole entry, looked up): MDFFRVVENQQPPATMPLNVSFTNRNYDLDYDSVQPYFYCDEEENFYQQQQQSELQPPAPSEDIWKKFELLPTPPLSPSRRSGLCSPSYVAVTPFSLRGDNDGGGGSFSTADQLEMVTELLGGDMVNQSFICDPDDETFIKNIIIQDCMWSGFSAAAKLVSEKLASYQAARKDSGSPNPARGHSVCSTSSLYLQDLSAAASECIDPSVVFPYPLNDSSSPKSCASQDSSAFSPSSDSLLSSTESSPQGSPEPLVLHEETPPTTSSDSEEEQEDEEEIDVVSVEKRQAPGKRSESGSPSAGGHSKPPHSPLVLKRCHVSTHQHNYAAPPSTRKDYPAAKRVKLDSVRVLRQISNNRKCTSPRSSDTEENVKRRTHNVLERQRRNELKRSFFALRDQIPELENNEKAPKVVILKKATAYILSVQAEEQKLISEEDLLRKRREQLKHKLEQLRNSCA
# ID4 SMM = binds human ID4 protein on microarray; P47928; small molecule microarray, Flag-ID4 binding, fluorescence F/B; AID 624137; 31,000 compounds, 1.2% hits; calls only;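 active means spot signal over background at p below 0.07 in all four prints; compounds were printed on slides so no solution concentration is given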;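 further: a binder raises fluorescence above local background on the spot; about 2 pmol printed per array spot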
# Target sequence (P47928 whole entry, looked up): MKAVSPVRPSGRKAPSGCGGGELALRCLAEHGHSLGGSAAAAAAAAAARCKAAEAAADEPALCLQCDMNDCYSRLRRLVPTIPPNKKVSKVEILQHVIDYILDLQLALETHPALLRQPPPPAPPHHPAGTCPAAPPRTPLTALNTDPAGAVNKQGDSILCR
# STAT3 SMM = binders of human STAT3. P40763. Small molecule microarray, His-STAT3 binding, anti-His fluorescence. calls only. 17,000 compounds, 0.2% hits. AID 624138;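 active means compounds whose four printed spots each show fluorescence over background unusually high for their array block, chance value under 7%; compounds were printed on slides so no solution concentration is given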;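 further: about 2 pmol printed per array spot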
# mut p53 SMM = binders of human mutant p53; small molecule microarray binding, anti-GST fluorescence; calls only; 17,000 compounds, 0.4% hits; AID 624136;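 active means compounds whose four printed spots each glow above background more than chance allows, each with a p-value under 7%; compounds were printed on slides so no solution concentration is given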;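 further: about 2 pmol printed per array spot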
# Calls only; i = inactive; x = no result given; + = active, no number. These rows are one share of the data (hit frequency here may not be typical).
compound	Myc binder	ID4 SMM	STAT3 SMM	mut p53 SMM
CCn1c(SCC(=O)Nc2ccccc2C)nnc1-c1ccccc1O	i	i	i	i
CCOC(=O)c1ccc(COC(=O)c2cc3ccccc3oc2=O)o1	i	i	i	i
C[C@H]1CN([C@@H](C)CO)C(=O)c2cc(NC(=O)Nc3ccc(C(F)(F)F)cc3)ccc2O[C@H]1CN(C)C(=O)NC1CCCCC1	i	i	i	i
C[C@@H]1CN([C@H](C)CO)C(=O)Cc2cc(NC(=O)CCN3CCOCC3)ccc2O[C@H]1CN(C)C	i	i	i	i
CCCN(C)C[C@@H]1Oc2ncc(-c3ccc(OC)cc3)cc2C(=O)N([C@H](C)CO)C[C@@H]1C	i	i	i	i
C[C@H](CO)N1C[C@H](C)[C@@H](CN(C)C(=O)Nc2ccccc2)Oc2ccc(NC(=O)Cc3cn(C)c4ccccc34)cc2CC1=O	i	i	i	i
C[C@H](CO)N1C[C@H](C)[C@H](CN(C)C(=O)CCC(F)(F)F)OCc2cn(nn2)CCCC1=O	i	i	i	i
COCCOC(=O)N1C(=O)[C@@]2(c3cc(C#CCC(C(=O)OC)C(=O)OC)ccc31)[C@H](c1ccccc1OCCO)N1[C@H](c3ccccc3)[C@H](c3ccccc3)OC(=O)[C@H]1[C@@H]2C(=O)N1CCN(c2ncccn2)CC1	i	i	i	i
C[C@H]1CN([C@@H](C)CO)C(=O)Cc2cc(NS(=O)(=O)c3ccccc3)ccc2O[C@@H]1CN(C)C(=O)NC1CCCCC1	i	i	i	i
CC(C)NC(=O)Nc1ccc2c(c1)C(=O)N([C@H](C)CO)C[C@H](C)[C@@H](CN(C)C(=O)Nc1ccccc1)OCCCC[C@@H](C)O2	i	i	i	i
C=CCN1C(=O)[C@]2(CCS(=O)(=O)c3ccccc3)N=C(c3ccc(OCCCO)cc3)O[C@@H]2c2ccccc21	i	i	i	i
Cc1c(C(=O)C2C(=O)C(=O)N(CCN3CCOCC3)C2c2ccccn2)cnn1-c1ccccc1 (stereo not drawn)	i	i	i	i
COc1ccc(CN(C)C[C@H]2Oc3ccc(NC(=O)c4ccncc4)cc3C(=O)N([C@H](C)CO)C[C@@H]2C)cc1	i	i	i	i
O=C1c2ccccc2C(=O)N1[C@@H]1CCCN(Cc2ccc(OCCO)cc2)C1	i	i	i	i
C[C@@H]1CN([C@@H](C)CO)C(=O)c2cc(NC(=O)CCC(F)(F)F)ccc2O[C@@H](C)CCCCO[C@@H]1CN(C)C(=O)c1ccncc1	i	i	i	i
CCc1nc2ccccc2n1CCC(=O)O	i	i	i	i
Cc1c(N2C(=O)CSC2c2ccccc2)c(=O)n(-c2ccccc2)n1C (stereo not drawn)	i	i	i	i
C[C@H](CO)N1C[C@H](C)[C@@H](CN(C)Cc2ccccc2)Oc2ccc(NS(=O)(=O)c3ccc(Cl)cc3)cc2CC1=O	i	x	i	i
CC[C@H](NS(=O)(=O)c1ccc(C)cc1)C(=O)Oc1cc2oc(=O)cc(C)c2cc1Cl	i	i	i	i
CNC[C@H]1Oc2ccc(NC(=O)Nc3ccc(OC)cc3)cc2C(=O)N([C@@H](C)CO)C[C@@H]1C	i	i	i	i
C[C@H]1CN([C@@H](C)CO)C(=O)Cc2cc(N(C)C)ccc2O[C@@H]1CN(C)S(=O)(=O)c1cn(C)cn1	i	i	i	i
C[C@H](CO)N1C[C@H](C)[C@H](CN(C)S(=O)(=O)c2cccs2)OCCCC[C@H](C)Oc2ccc(NS(C)(=O)=O)cc2C1=O	i	i	i	i
CC1(C)CC[C@]2(C(=O)O[C@@H]3O[C@H](CO)[C@@H](O)[C@H](O)[C@H]3O)CC[C@]3(C)C(=CCC4[C@@]5(C)C[C@@H](O)[C@H](O)[C@@](C)(CO)C5CC[C@]43C)C2C1 (stereo partly drawn)	i	i	i	i
CNC[C@@H]1OCCCC[C@@H](C)Oc2ccc(NS(=O)(=O)c3ccccc3)cc2C(=O)N([C@@H](C)CO)C[C@@H]1C	i	i	i	i
CCOc1ccc(Nc2nc(CSc3nc4ccccc4c(=O)n3-c3ccccc3)cs2)cc1	i	i	i	i
CNC[C@@H]1Oc2ccc(NC(=O)CCCN(C)C)cc2C(=O)N([C@@H](C)CO)C[C@H]1C	i	i	i	i
C[C@@H]1CCCCO[C@H](CN(C)S(=O)(=O)c2ccc(F)cc2)[C@H](C)CN([C@H](C)CO)C(=O)c2cc(NC(=O)C3CCCCC3)ccc2O1	i	x	i	i
C=C1C(=O)C23CC(O)C4C(C)(C(=O)OC5OC(CO)C(O)C(O)C5O)CCCC4(C)C2=CCC1(O)C3 (stereo not drawn)	i	i	i	i
Cc1noc(C)c1S(=O)(=O)Nc1ccc2c(c1)C(=O)N([C@H](C)CO)C[C@@H](C)[C@H](CN(C)C(=O)Nc1ccccc1)OCCCC[C@@H](C)O2	i	i	i	i
COc1ccc(C(=O)CC2(O)C(=O)Nc3ccc(Cl)cc32)cc1OC (stereo not drawn)	i	i	i	i

# Next section, overlapping the part above by 4 compounds.
compound	Myc binder	ID4 SMM	STAT3 SMM	mut p53 SMM
C[C@@H]1CCCCO[C@H](CN(C)S(=O)(=O)c2ccc(F)cc2)[C@H](C)CN([C@H](C)CO)C(=O)c2cc(NC(=O)C3CCCCC3)ccc2O1	i	x	i	i
C=C1C(=O)C23CC(O)C4C(C)(C(=O)OC5OC(CO)C(O)C(O)C5O)CCCC4(C)C2=CCC1(O)C3 (stereo not drawn)	i	i	i	i
Cc1noc(C)c1S(=O)(=O)Nc1ccc2c(c1)C(=O)N([C@H](C)CO)C[C@@H](C)[C@H](CN(C)C(=O)Nc1ccccc1)OCCCC[C@@H](C)O2	i	i	i	i
COc1ccc(C(=O)CC2(O)C(=O)Nc3ccc(Cl)cc32)cc1OC (stereo not drawn)	i	i	i	i
COC(=O)c1cc(OC)cc(O)c1C(=O)c1c(O)cc(C)cc1O	i	x	i	i
COc1ccc(NC(=O)Nc2cccc3c2O[C@@H](CN(C)Cc2ccc4c(c2)OCO4)[C@H](C)CN([C@H](C)CO)C3=O)cc1	i	x	i	i
C[C@@H]1CCCCO[C@H](CN(C)C(=O)C2CCCCC2)[C@@H](C)CN([C@@H](C)CO)C(=O)c2cc(N(C)C)ccc2O1	i	i	i	i
CCOC(=O)c1c(NC(=O)CN2C(=O)c3cccc4cccc(c34)C2=O)sc2c1CCC2	i	i	i	i
CCOC(=O)c1c(NC(=O)c2nn(CC)cc2Br)c(C#N)nn1-c1ccccc1	i	i	i	i
COc1ccc(CN(C)C[C@H]2Oc3c(NC(=O)Nc4ccc(OC)cc4)cccc3C(=O)N([C@@H](C)CO)C[C@@H]2C)cc1	i	i	i	i
O=C(OCc1ccc2nonc2c1)c1cc(-c2ccccc2)nc2ccccc12	i	i	i	i
CCNC(=O)c1c(NC(=O)c2ccccc2[N+](=O)[O-])sc2c1CCCC2	i	i	i	i
Cc1ccc(NS(=O)(=O)c2ccc(NS(=O)(=O)c3ccc4c(c3)OCCO4)cc2)c(C)c1	i	i	i	i
Cc1cc2nc(SCC(=O)c3ccc(O)cc3)[nH]c2cc1C	i	i	i	i
CCCc1nnc(NC(=O)c2nc(SC)ncc2Cl)s1	i	i	i	i
CCO[C@H]1OC(C(=O)NCc2ccccc2)=C[C@@H](c2ccc(C(F)(F)F)cc2)[C@@H]1CCCO	i	i	i	i
CC(C)NC(=O)Nc1cccc2c1O[C@H](CN(C)Cc1ccc(Oc3ccccc3)cc1)[C@H](C)CN([C@H](C)CO)C2=O	i	i	i	i
CCCCC1C(=O)N(c2ccccc2)N(c2ccc(O)cc2)C1=O (stereo not drawn)	i	x	i	i
O=C1O[C@@H](c2ccccc2)[C@@H](c2ccccc2)N2[C@@H](c3ccc(OCCO)cc3)[C@]3(C(=O)Nc4ccccc43)[C@@H](C(=O)O)[C@H]12	i	i	i	i
C[C@H]1CN([C@@H](C)CO)C(=O)c2cc(NC(=O)Nc3cccc4ccccc34)ccc2O[C@@H]1CN(C)C(=O)Nc1ccc2c(c1)OCO2	i	i	i	i
C[C@@H]1CCCCO[C@H](CN(C)C(=O)C2CCCCC2)[C@H](C)CN([C@@H](C)CO)C(=O)c2cc(NS(=O)(=O)c3cccs3)ccc2O1	i	i	+	i
C[C@H](CO)N1C[C@H](C)[C@@H](CN(C)C(=O)CCC(F)(F)F)OCCCC[C@H](C)Oc2ccc(N(C)C)cc2C1=O	i	i	i	i
N#CCCN(CC1COc2ccccc2O1)C(=O)c1ccccc1 (stereo not drawn)	i	i	i	i
Cc1noc(C)c1S(=O)(=O)Nc1ccc2c(c1)CC(=O)N([C@@H](C)CO)C[C@H](C)[C@@H](CN(C)C(=O)Nc1ccccc1)O2	i	i	i	i
CC(=O)c1cccc(NC(=O)CSc2nc3ccc([N+](=O)[O-])cc3s2)c1	i	i	i	i
C[C@H]1CN([C@@H](C)CO)C(=O)c2cc(NC(=O)CCCN(C)C)ccc2O[C@H]1CN(C)C(=O)Nc1cccc2ccccc12	i	i	i	i
C[C@H](CO)N1C[C@H](C)[C@H](CN(C)C(=O)Nc2ccc(F)cc2)Oc2ccc(NS(=O)(=O)c3cccs3)cc2C1=O	i	i	i	i
C=C(C(=O)/C=C/C(C)(C)O)C1CC2O[C@]2(C)C(=O)[C@H]1OC(=O)CC(C)C (stereo partly drawn)	i	x	i	i
O=C(COc1ccc([N+](=O)[O-])cc1)Nc1ccccc1N1CCN(C(=O)c2ccc(Cl)cc2)CC1	i	i	i	i
C[C@H]1CCCCO[C@H](CN(C)C(=O)Nc2ccc(F)cc2)[C@@H](C)CN([C@@H](C)CO)C(=O)c2cc(NS(=O)(=O)c3ccccc3)ccc2O1	i	i	i	i
COc1ccc(-c2nnn(CC(=O)Nc3ccc(OC)cc3OC)n2)cc1	i	i	i	i
C[C@@H]1CN([C@@H](C)CO)C(=O)c2cc(NC(=O)C3CCCCC3)ccc2O[C@@H]1CN(C)Cc1ccc(Cl)c(Cl)c1	i	x	i	i
C[C@@H]1CN([C@@H](C)CO)C(=O)c2cc(NS(C)(=O)=O)ccc2O[C@@H](C)CCCCO[C@@H]1CN(C)C	i	i	i	i
CC(C)c1cccc(O)c(=O)c1	i	i	i	i
COCCCNC(=O)C(=O)c1cn(C)c2ccccc12	i	i	i	i
N#Cc1c(NC(=O)c2cc3nc(-c4ccco4)cc(C(F)(F)F)n3n2)sc2c1CCC2	i	i	i	i
C[C@@H]1CN([C@@H](C)CO)C(=O)c2cccc(NS(C)(=O)=O)c2O[C@H]1CN(C)S(=O)(=O)c1ccc(Cl)cc1	i	i	i	i
CC(C)NC(=O)Nc1ccc2c(c1)C(=O)N([C@H](C)CO)C[C@@H](C)[C@H](CN(C)Cc1ccc(C(=O)O)cc1)OCCCC[C@@H](C)O2	i	i	i	i
CN(CC(N)=O)S(=O)(=O)c1ccc(F)cc1	i	i	i	i
CC1=CC(O)C2/C=C/CCC3OC3(C)C(O)CC(=O)C23C(=O)NC(CC(C)C)C13 (stereo not drawn)	i	x	i	i
CC(C)NC(=O)N(C)C[C@@H]1OCCCC[C@H](C)Oc2ccc(N(C)C)cc2C(=O)N([C@H](C)CO)C[C@H]1C	i	i	i	i
CC(C)NC(=O)N(C)C[C@@H]1OCCCC[C@H](C)Oc2ccc(NC(=O)Nc3ccccc3)cc2C(=O)N([C@@H](C)CO)C[C@H]1C	i	i	i	i
O=C1CSC(c2ccccc2)N1c1ccc(Cl)cc1 (stereo not drawn)	i	i	i	i
O=C(C1=C[C@@H](c2ccc(Br)cc2)C[C@@H](OCCCCO)O1)N1CCN(Cc2ccccc2)CC1	i	i	i	i
C[C@@H]1CN([C@H](C)CO)C(=O)c2cc(NC(=O)CCCN(C)C)ccc2O[C@H]1CN(C)C(=O)Nc1cccc2ccccc12	i	i	i	i
Cc1nc(SCC(=O)Nc2ccc(Cl)cc2)c2ccsc2n1	i	i	i	i
CC(C)NC(=O)Nc1ccc2c(c1)C(=O)N([C@@H](C)CO)C[C@H](C)[C@H](CN(C)S(=O)(=O)c1ccc(F)cc1)OCCCC[C@@H](C)O2	i	i	i	i
CNC[C@H]1OCCCC[C@@H](C)Oc2ccc(NC(=O)C3CCCCC3)cc2C(=O)N([C@@H](C)CO)C[C@H]1C	i	i	i	i
O=C(NC(Cc1ccc(O)cc1)C(=O)O)c1ccccc1 (stereo not drawn)	i	+	i	i
Cc1ccc(S(=O)(=O)N(C)C[C@@H]2Oc3ccc(NC(=O)Cc4cn(C)c5ccccc45)cc3CC(=O)N([C@H](C)CO)C[C@H]2C)cc1	i	x	i	i
O=C(NCc1ccccc1)C1=C[C@@H](c2cccs2)C[C@@H](OCc2ccc(CO)cc2)O1	i	x	i	i
CNc1ccccc1C(=O)N1CCc2c([nH]c3ccccc23)C1=O	i	x	i	i
Cc1noc(C)c1NC(=O)Nc1ccc2c(c1)C(=O)N([C@H](C)CO)C[C@@H](C)[C@H](CN(C)C(=O)Nc1c(C)noc1C)O2	i	i	i	i
CCn1c2ccccc2n2c(SCCOc3ccc(C)cc3)nnc12	i	i	i	i
C[C@H]1CN([C@@H](C)CO)C(=O)Cc2cc(NC(=O)Cc3ccccc3)ccc2O[C@H]1CN(C)Cc1ccc(C(F)(F)F)cc1	i	i	i	i

# Bioassay records from PubChem BioAssay.
